Screening results deposited in PubChem BioAssay by Broad Institute.
Tgondii IFNg: blocks Toxoplasma gondii growth in the presence of IFN-gamma; activity change, negative = inhibition, %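 (about 20 µM by stock and volumes)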; Toxoplasma gondii growth in IFN-gamma-treated host cells; stronger effect = lower value; reference of the scale not given here; 3.8% of 69,000 active;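 active = below -70%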;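 note: host cells are HeLa cells infected with Toxoplasma gondii; parasite growth read as luciferase light; one replicate is shown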
Starred values were filed as active, the others as inactive; & = joins results of further samples. The list is partial. The share of hits here may be higher or lower than overall.

SMILES	Tgondii IFNg
CSc1cccc(NC(=S)NCc2ccc(F)cc2)c1	61
CCS(=O)(=O)N1C[C@H]2CCCO[C@H]2[C@@H](Nc2ccccn2)C1	6
Cc1cc2nc(C)c(CCC(=O)Nc3c(C)ccc4cccnc34)c(C)n2n1	3
CCS(=O)(=O)N1CC2CN(Cc3ccc[nH]3)CC2C1 (stereo unspecified)	146
CC(C)C1=NOC(C(=O)NC2CCN(S(C)(=O)=O)CC2)C1 (stereo unspecified)	-3
CNC(=O)[C@H]1C[C@@H]2CN(CC3CCOCC3)C[C@@H]2N1C(C)C	-2
COc1ccc(C(NC(=O)c2ccccc2)c2ccc(OC)cc2)cc1	-26
COc1ccc(-n2c(=O)n(Cc3nc(-c4ccccc4)oc3C)c(=O)c3cccnc32)cc1	8
Nc1nc(SC2c3ccccc3-c3ccccc32)n[nH]1	21
CCc1[nH]c2c(CNC(=O)Nc3c(C)noc3C)cc(C)cc2c1C	-9
COc1ccc2[nH]c(=O)c3c(c2c1)OC(C)(C)C=C3	-83*
COc1ccc(C(=O)Cc2ccccc2)cc1OC	12
CC(C)N(Cc1ccc(N(C)C)cc1)S(=O)(=O)c1ccc(F)cc1	24
C[C@H]1CN([C@@H](C)CO)C(=O)Cc2cc(NS(=O)(=O)c3ccc(Cl)cc3)ccc2O[C@@H]1CN(C)C(=O)Nc1ccc(C(F)(F)F)cc1	20
CCc1onc(C)c1C1CCCN1C(=O)c1cc(C(F)(F)F)nn1C (stereo unspecified)	2
Cc1cccc(-c2[nH]ncc2-c2ccc3ncccc3n2)n1	-69
N#C[C@H]1[C@H](c2ccccc2-c2ccccc2F)[C@H](CO)N1C(=O)c1ccccn1	-3
Cc1ccc(S(=O)(=O)N2CCC3(CC2)NCCN=C3NCc2ccc(C(F)(F)F)cc2)c(C)c1	-52
Cc1ccc(C2=NC3(CCN(CC(=O)Nc4ccccc4F)CC3)NC2=O)cc1C	34
Clc1cccc(-c2nnc(-c3nc(N4CCCCCC4)c4ccccc4n3)o2)c1	61
COc1cc(S(C)=O)ccc1-c1nc2ncccc2[nH]1 (stereo unspecified)	-16&16
CC(C)(O)C#Cc1ccc(-c2nccn2Cc2ccc(F)cc2)cc1	-4
CCCC(=O)N1CCCCC1c1nc2c(c(=O)[nH]1)CN(C(C)=O)CC2 (stereo unspecified)	79
COc1ccc(-c2nc(NC(=O)CC3SC4=NCCN4C3=O)sc2C)cc1 (stereo unspecified)	18
COc1ccc(CNC(=O)N(C)C[C@@H]2OCc3ccccc3-c3c(n(C)c4ccccc34)C(=O)N([C@H](C)CO)C[C@H]2C)cc1	-48
O=C(Cn1c(=O)oc2cc(Cl)ccc21)NCCN1CCc2ccccc21	69
CN(Cc1ccccn1)C(=O)c1cc(-c2cnc(-c3cccc(F)c3)nc2)cn1C	170
Cc1cc(-c2ccsc2)nc(C2CCN(C(=O)c3cc(C(F)(F)F)nn3C)CC2)n1	-30
COc1ccc2c3c([nH]c2c1)[C@H](CO)N(Cc1ccccn1)CC31CCN(C(C)=O)CC1	165
Cc1ccc([N+](=O)[O-])cc1S(=O)(=O)N(C)/N=C/c1cnc2ccc(Br)cn12	-80*

Look-ups from the entries so far:
Value for Cc1ccc([N+](=O)[O-])cc1S(=O)(=O)N(C)/N=C/c1cnc2ccc(Br)cn12 in Tgondii IFNg: -80*
Value for COc1cc(S(C)=O)ccc1-c1nc2ncccc2[nH]1 (stereo unspecified) in Tgondii IFNg: -16&16
Value for CC(C)(O)C#Cc1ccc(-c2nccn2Cc2ccc(F)cc2)cc1 in Tgondii IFNg: -4
Value for CN(Cc1ccccn1)C(=O)c1cc(-c2cnc(-c3cccc(F)c3)nc2)cn1C in Tgondii IFNg: 170
Value for COc1ccc(-c2nc(NC(=O)CC3SC4=NCCN4C3=O)sc2C)cc1 (stereo unspecified) in Tgondii IFNg: 18

Later entries:
SMILES	Tgondii IFNg
COCC1CN(S(=O)(=O)Cc2ccc(C)cc2)Cc2c1cnn2C (stereo unspecified)	4
O=C(c1ccco1)N1CCc2ncnc(NC3CC3)c2CC1	-86*
CN1CCC(Cc2noc(C[C@@H]3C[C@@H]4C=C[C@H]3C4)n2)CC1	-42
COCCOC(=O)c1c(C)oc2ccc(OCc3cc(C(=O)OC)oc3C)cc12	39
CCCC1C(=O)CC(c2ccco2)NC1c1ccco1 (stereo unspecified)	25
CC(C)c1csc(C(=O)N2CCC(OCc3cccnc3)CC2)n1	-51
O=C(Nc1ccccc1Cl)N1C[C@@H]2[C@H](c3ccccc31)[C@H](CO)N2C(=O)c1cccnc1	-7
Cc1nc(CN2CCC3(CC2)COCCN3C)cs1	-58
Cc1c2c(nc3c(C)cccc13)OC(C)C2 (stereo unspecified)	28&23
Cc1ccc(NC(=O)Nc2ccc3c(c2)C(=O)N(C)[C@H]2CC[C@H](CC(=O)NCC(F)(F)F)O[C@@H]2CO3)cc1	3

Of the compounds above, 5 contain a CF3 group:
SMILES	Tgondii IFNg
C[C@H]1CN([C@@H](C)CO)C(=O)Cc2cc(NS(=O)(=O)c3ccc(Cl)cc3)ccc2O[C@@H]1CN(C)C(=O)Nc1ccc(C(F)(F)F)cc1	20
CCc1onc(C)c1C1CCCN1C(=O)c1cc(C(F)(F)F)nn1C (stereo unspecified)	2
Cc1ccc(S(=O)(=O)N2CCC3(CC2)NCCN=C3NCc2ccc(C(F)(F)F)cc2)c(C)c1	-52
Cc1cc(-c2ccsc2)nc(C2CCN(C(=O)c3cc(C(F)(F)F)nn3C)CC2)n1	-30
Cc1ccc(NC(=O)Nc2ccc3c(c2)C(=O)N(C)[C@H]2CC[C@H](CC(=O)NCC(F)(F)F)O[C@@H]2CO3)cc1	3

Next part:
SMILES	Tgondii IFNg
Fc1ccccc1CN1CCC2(CC1)CC(c1cccnc1)CO2 (stereo unspecified)	-7
CCC(=O)Nc1ccc(OCC(=O)NCc2nc(C)c3c(n2)CCCC3)cc1	0
Cn1c(CCNC(=O)c2ccc(C(F)(F)F)cc2)nnc1SCc1ccccc1	-56
CC(C)(C)c1nc2ccccc2c2nnc(SCC(=O)c3ccc4c(c3)OCCO4)n12	1
O=C(C[C@H]1C=C[C@H](NC(=O)c2ccc3c(c2)OCO3)[C@@H](CO)O1)NC1Cc2ccccc2C1	24
Cc1noc(C)c1NC(=O)N1C[C@@H](O)COC[C@H]2O[C@H](CC(=O)NCC3CC3)CC[C@@H]21	20
CC(C)[C@@H]1CCc2cnnn2COC[C@@H](Cc2ccccc2)NC1=O	-23
CNC(=O)[C@H]1C[C@@H]2CN(Cc3cnn(C)c3)C[C@@H]2N1C	-6
O=C(c1cnccn1)N1CC[C@@H]2C[C@@H](c3ccncn3)O[C@H]2C1	-30
Cc1ccc(OCC(=O)N2CCC3(CC2)CNS(=O)(=O)c2ccccc2OC3)cc1	2
COc1ccc(S(=O)(=O)Nc2ccc3c(c2)CC(=O)N([C@H](C)CO)C[C@@H](C)[C@H](CN(C)Cc2ccc(C(=O)Nc4ccccc4N)cc2)O3)cc1	10
Cn1c(=O)oc2cc(S(=O)(=O)N3CCC4(CC3)Nc3ccccc3-n3cccc34)ccc21	22
CCCC1CC(C)(C(=O)CSc2n[nH]c(-c3ccccc3)n2)OC1=O (stereo unspecified)	10
Cn1ccc2cc(NC(=O)Nc3cccnc3)ccc21	2&44
O=C(Cn1cnc2c([nH]c3ccc(F)cc32)c1=O)N1CCN(c2ccccn2)CC1	-22
Cc1nn(CC(=O)N[C@@H]2C[C@H]3C(=O)N(C)CC(=O)N3C2)c(C)c1C	-6
Cc1cccc2[nH]c(CN(C)C(=O)c3cn(CC4CCCNC4)nn3)nc12 (stereo unspecified)	-4
Cc1cc(C)cc(C(=O)N2CCC3(CC2)NC(=O)c2ccccc2N3C)c1	-51
Cc1cc(C(=O)N2CC(=O)N(C3CCCCC3)CC(OCc3ccccc3)C2)nc(C)n1 (stereo unspecified)	10
CN(C)C(=O)C1OC2(CCN(C(=O)c3ccco3)CC2)c2ccccc21 (stereo unspecified)	7
COC(=O)c1c(NCCc2c[nH]c3ccccc23)c2cc(F)ccc2[nH]c1=O	-99*
CCN(Cc1noc(CC(C)C)n1)C(=O)c1cccc(=O)[nH]1	-1
O=S(=O)(c1ccc(Cl)s1)N1CCC2(CC1)NCCN=C2NCc1ccc2c(c1)OCO2	0
O=C(C1CCC1)N1C[C@H]2[C@@H](c3ccccc31)[C@@H](CO)N2C(=O)Nc1cccc(F)c1	2
CN(CC1Cc2ccccc2O1)S(=O)(=O)NCc1ccccc1 (stereo unspecified)	0
Cc1oc(-c2cccc(Cl)c2)nc1CNS(=O)(=O)c1ccc(F)cc1	-57
Cc1ccsc1CN(Cc1ccc(Sc2nncn2C)o1)C1CCCC1	3
Cc1cccc(S(=O)(=O)N2CC3CCC2C3Oc2cccnc2)c1 (stereo unspecified)	-27
COc1cc(C)c(C)cc1S(=O)(=O)N1CCN(Cc2csc(C)n2)CC1	0
CCOC(=O)c1c(NC(=O)C2CC(=O)OC23CCCCC3)sc2c1CC(C)(C)OC2 (stereo unspecified)	-96*
O=C(CC1N=C2c3ccccc3N=C(SCc3ccccc3F)N2C1=O)NCc1ccc(F)cc1 (stereo unspecified)	-23
Cc1cc(Cn2cnc(-c3ccccc3)c2COCc2ccccc2)ccn1	-12
COc1ccc2oc(/C=C/N(C)C)c(C(=O)c3ccc(Br)cc3)c2c1	18
CCN1CC2CCCC(C1)C2CC(=O)Nc1cccc(F)c1 (stereo unspecified)	2
O=C1c2ccccc2-c2c1cnc1c(-c3ccccc3)cnn21	81
CCn1cc(CN(Cc2sc(C)nc2C)C(C)C)cn1	2
CCOc1ccc(NC(=O)Cn2c(=O)cc(C(=O)N3CCOCC3)c3ccccc32)cc1	-46
CC(C)(C)c1ccc2c(c1)OCC(C(=O)O)O2 (stereo unspecified)	-11
O=C(c1ccco1)N1CCc2ccc(=O)n(CC3CC3)c2CC1	-20
CN(C(=O)CN1CCOCC1)n1cnc2ccsc2c1=O	-4
Cc1ccc(CNC(=O)N2CCCCC2CCN2CCOCC2)cc1 (stereo unspecified)	5
O=C(CC1CC2(CCN(Cc3ccccn3)CC2)Oc2ccccc21)NCC1CC1 (stereo unspecified)	13
Cc1ccc(NC(=O)CN2C(=O)CCc3cc(S(=O)(=O)N4CCCC4)ccc32)cc1C	19
C[C@@H]1CN([C@@H](C)CO)C(=O)Cc2cc(NS(=O)(=O)c3ccc(Cl)cc3)ccc2O[C@H]1CN(C)C(=O)Nc1ccc(C(F)(F)F)cc1	-25
CCc1ccc(NC(=O)c2cncc(NS(=O)(=O)c3ccc(OC)c(OC)c3)c2)cc1	47
COc1cc(NC(=O)C2(C)CC(C)=NO2)ccc1NC(=O)C(C)(C)C (stereo unspecified)	-3
CS(=O)(=O)N1CCN(C2CCOCC2)CC(C(=O)O)C1 (stereo unspecified)	-100*
O=C(Cn1c(=O)cc(-c2nc(C3CC3)no2)c2ccccc21)NCCC1=CCCCC1	-84*
O=C(CCC1N=C2c3ccccc3N=C(SCc3ccccc3F)N2C1=O)NCc1cccs1 (stereo unspecified)	7
Cc1ccc(-c2nc(CCNC(=O)C(=O)Nc3cccc(C)c3)cs2)cc1	-10

Further entries:
SMILES	Tgondii IFNg
COc1ccc(C(N)=O)cc1-c1ccc(-n2cccn2)cc1	5
CCCc1noc(CN(C)C(=O)c2[nH]c3ccc(C)cc3c2C)n1	-35
O=C(Cc1ccsc1)Nc1ccc2c(c1)CCC(=O)N2	312
C[C@]12CCC3c4ccc(OC(=O)c5ccccc5)cc4CCC3C1CC[C@@H]2O (stereo partly specified)	-87*
COc1ccc(Br)cc1-c1nc(Cn2nnc(C(=O)Nc3c(C)cccc3C)c2C)c(C)o1	-38
COc1ccc(NC(=O)c2cncc(NS(=O)(=O)c3ccc(Br)cc3)c2)c(OC)c1	12
CC(C)CNC1CC2(CCN(c3ncccn3)CC2)Oc2ccccc21 (stereo unspecified)	27
CCc1nc(OCC(=O)Nc2ccc(C)c(F)c2)c2ccccc2n1	-12
Cc1n[nH]c(=O)n1-c1cccc(C(=O)O)c1	57
CCOC(=O)CNC(=O)c1ccc(SCC)cc1	65

4 of these compounds in a different format.
CCCc1noc(CN(C)C(=O)c2[nH]c3ccc(C)cc3c2C)n1
  Tgondii IFNg: -35

COc1ccc(C(N)=O)cc1-c1ccc(-n2cccn2)cc1
  Tgondii IFNg: 5

Cc1n[nH]c(=O)n1-c1cccc(C(=O)O)c1
  Tgondii IFNg: 57

CCc1nc(OCC(=O)Nc2ccc(C)c(F)c2)c2ccccc2n1
  Tgondii IFNg: -12

(further entries)
SMILES	Tgondii IFNg
COc1cccc(C2CCN(c3ncnc4c3CCNC4)C2)c1OC (stereo unspecified)	-72*
CN1C(=O)c2cc(NC(=O)C3CCOCC3)ccc2OC[C@H]2O[C@H](CC(=O)NCc3ccccc3F)CC[C@@H]21	15
Cc1cccc(NC(=O)C(=O)NCCc2csc(-c3cccc(F)c3)n2)c1	-87*
Clc1ccc(Sc2cn[nH]c2-c2ccc3c(c2)OCCO3)cc1	18
NC(=O)c1cncc(N2CCC(CO)(Cc3ccccc3)CC2)n1	-32
CCCCCc1nc(N)c(C#N)c(-c2ccco2)c1CCCC	-91*
Cn1cnc2c1C(C(=O)Cc1ccncc1)N(C(=O)c1cccnc1)CC2 (stereo unspecified)	-37
CCN1C(=O)CCc2cc(NC(=O)c3cc(F)cc(F)c3)ccc21	49
COc1ccccc1NC(=O)N1C[C@@H](O)COC[C@H]2O[C@@H](CC(=O)NCCc3ccncc3)CC[C@@H]21	-11
COCCN(Cc1cccs1)C(=O)c1ccc(=O)n(C)c1	9
COCC(=O)N1[C@H](C#N)[C@@H](c2ccccc2-c2ccccc2F)[C@@H]1CO	-42
O=C1CC(c2ccccc2)C2(CCN(C(=O)[C@H]3CCCO3)CC2)N1 (stereo partly specified)	4
O=C(Cc1cccs1)N1CCC2(CC1)Nc1cccnc1NC2=NC1CCCC1	242
Cc1ccc(S(=O)(=O)NC(=O)N2CCCN(c3c(Cl)cncc3Cl)CC2)cc1	3
